TRPML1 agonist – qHTS for Agonists of the Human Mucolipin Transient Receptor Potential 1 (TRPML1) | Mucolipin-1 (Homo sapiens), Q9GZU1 | TRPML1-expressing cells, Ca2+ dye fluorescence, FDSS; host cell line not named in the record; reference of the full effect not given here | activation, % (no concentration beside the values) | 0.12% of 410,000 active; in the data active = activation above about 50%; inconclusive = about 30% to 50%; inactive = below about 30%; note: 0% is about no effect; the text of the record puts the active cut at 80%
Target sequence (Q9GZU1 whole entry, looked up): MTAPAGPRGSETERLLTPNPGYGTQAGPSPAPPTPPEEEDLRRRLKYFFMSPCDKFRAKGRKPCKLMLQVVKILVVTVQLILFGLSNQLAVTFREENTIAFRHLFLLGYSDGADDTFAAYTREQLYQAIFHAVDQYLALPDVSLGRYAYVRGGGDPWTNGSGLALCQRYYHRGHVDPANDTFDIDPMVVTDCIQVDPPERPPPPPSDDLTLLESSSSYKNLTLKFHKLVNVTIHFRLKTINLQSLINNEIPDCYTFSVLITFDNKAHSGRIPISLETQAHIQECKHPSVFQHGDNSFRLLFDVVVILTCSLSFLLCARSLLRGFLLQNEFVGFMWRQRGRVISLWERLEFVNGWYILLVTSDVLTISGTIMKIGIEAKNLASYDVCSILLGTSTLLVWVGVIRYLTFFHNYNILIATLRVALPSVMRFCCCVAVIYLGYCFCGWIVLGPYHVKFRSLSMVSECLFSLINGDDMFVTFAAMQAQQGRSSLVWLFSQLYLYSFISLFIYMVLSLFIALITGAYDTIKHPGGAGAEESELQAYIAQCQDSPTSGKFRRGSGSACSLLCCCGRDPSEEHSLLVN
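Cells: TRPML1-DL, 1X Tet inducer, ~16 h at 37 degrees C/5% CO2. Dye: ABD Ca8 no-wash + quencher, 45-90 min RT. Read: 10 s baseline, compound add, 110 s agonist phase; 54-4 EC80 (4uM final), 110 s antagonist phase.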
D2 agonist – Beta-Arrestin HTS for Positive Allosteric Modulators of the Human D2 Dopamine Receptor: Agonists; 0.084% of 360,000 active; activation, % (no concentration beside the values); DiscoveRx PathHunter D2 beta-arrestin, luminescence, 90 min; 100% = 57 uM dopamine signal; AID 624465, 2012; in the data active = activation above about 40%; inconclusive = about 15% to 40%; inactive = below about 15%; note: compound concentration not given in the record; the text of the record calls up to 30% inactive
Target sequence (P14416 whole entry, looked up): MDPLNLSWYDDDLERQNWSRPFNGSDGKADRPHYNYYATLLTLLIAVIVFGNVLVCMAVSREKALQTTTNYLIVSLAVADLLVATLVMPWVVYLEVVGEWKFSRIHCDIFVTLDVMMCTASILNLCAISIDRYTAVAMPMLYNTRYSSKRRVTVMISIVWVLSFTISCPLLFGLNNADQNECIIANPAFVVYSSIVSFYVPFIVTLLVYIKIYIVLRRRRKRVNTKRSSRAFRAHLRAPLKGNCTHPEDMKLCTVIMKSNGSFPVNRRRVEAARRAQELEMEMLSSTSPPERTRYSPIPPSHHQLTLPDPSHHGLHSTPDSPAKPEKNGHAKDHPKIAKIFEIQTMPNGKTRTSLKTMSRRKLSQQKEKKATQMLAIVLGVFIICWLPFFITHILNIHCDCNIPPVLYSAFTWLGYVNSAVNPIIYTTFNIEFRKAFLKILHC
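DiscoveRx PathHunter D2 beta-arrestin cells (2,100/well) attached overnight, then compound-stimulated 90 min at 37 C in HBSS/10 mM HEPES/0.1% Tween-20 buffer; beta-galactosidase complementation read by luminescence after 1 h at ambient temperature. Dopamine 57 uM final (EC100) as control.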
Six1-Eya2 inh – qHTS Assay for Inhibitors of the Six1/Eya2 Interaction. Homeobox protein SIX1 (Homo sapiens) + Protein phosphatase EYA2 (Homo sapiens), …. AlphaScreen GST-Six1/His-Eya2 binding, biochemical; stronger effect = lower value; control for the full effect not named in the record. activity change, % (concentration not given with the values). 0.56% of 360,000 active. AID 651725, 2012; in the data active = activity change below about -65%; inconclusive = about -30% to -65%; inactive = above about -30%; note: % is set by controls: 0 for no effect and ±100 for the full control effect
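Six1/Eya2 binding was read as AlphaScreen signal after compounds were pinned into GST-Six1 plus His-tagged Eya2 (5X stock 250/500 nM) in pH 8.0 Tris/NaCl/TCEP buffer, beads added, then incubated 1 h, 37 C, dark.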
CtBP-E1A inh – qHTS Assay for Inhibitors of the CtBP/E1A Interaction; 0.49% of 340,000 active; activity change, % (no concentration beside the values); CtBP / adenovirus E1A interaction (AlphaScreen); AlphaScreen GST-E1A/His-CtBP binding, 1536-well; stronger effect = lower value; control for the full effect not named in the record; in the data active means activity change below about -65%; inconclusive means about -30% to -65%; inactive means above about -30%; note: % is set by controls: 0 for no effect and ±100 for the full control effect; compound concentration not given in the record
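GST-E1A and His-tagged CtBP (125 nM each as 5X stock) were preincubated with pin-transferred compound for 2 h at 37 °C in the dark, then glutathione donor and nickel acceptor beads were added for 1 h before AlphaScreen reading.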
TRPML1 inh – qHTS for Inhibitors of the Human Mucolipin Transient Receptor Potential 1 (TRPML1) | AID 624415, 2012 | TRPML1-inducible cells, Ca2+ dye fluorescence, FDSS; stronger effect = lower value; inhibition of EC80 agonist-evoked calcium signal | activity change, negative = inhibition, % (test concentration not listed) | Mucolipin-1 (Homo sapiens), Q9GZU1 | 0.02% of 390,000 active; in the data active means activity change below about -50%; inconclusive means about -30% to -50%; inactive means above about -30%;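 note: stimulus is agonist 54-4 at its EC80 concentration; % is set by controls: 0 for no effect and ±100 for the full control effect; compound concentration not given in the record; the text of the record puts the active cut at -80%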
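Calcium fluorescence in TRPML1-DL cells induced overnight with Tet: a 110 s read after compound pin addition, then a 110 s antagonist read after challenge with 54-4 at 4 uM final (EC80).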
PINK1 modulator – A Quantitative High throughput Screen to Identify Chemical Modulators of PINK1 Expression | 0.2% of 410,000 active | AID 624263, 2012 | PINK1 immunofluorescence, high-content cytometry, 24 h | Potency, µM (titrated, usually from 76.6 µM), for inactives: at the top dose activation (PINK1 increase), most hits filed as activators; active = well fitted activation curve with a large enough effect; inconclusive = small, poorly fitted or top-dose-only effect; inactive = flat fitted curve, though single readings scatter; cell line not stated here;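 note: potency is the fitted concentration of half-maximal effect; % of control where 0% means no effect; nearly all actives have a fitted effect of over 65% in size; a mitochondrial uncoupler was the plate control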
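A stable cell line was treated with compounds at 5 concentrations for 24 hours, with CCCP as control. PINK1 levels and mitochondrial localization were measured by immunofluorescence with mitochondrial, cell and nuclear markers after fixation, read by laser-scanning cytometry.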
Numbers without * were called inactive; ? = inconclusive; nt = not tested or not shown; [ ] = another dose, or the depositor's remark.

SMILES	TRPML1 agonist	D2 agonist	Six1-Eya2 inh	CtBP-E1A inh	TRPML1 inh	PINK1 modulator
Cc1ccc(CN2C(=O)C(C)Oc3ccc(C)cc32)cc1 (stereo not drawn)	-0.7	-4.8	28	29	nt	1.1%
CNC(=O)c1ccc(Nc2nnc(-c3ccc(C(N)=O)cc3)c3ccccc23)cc1	-1.0	-2.2	?	-18	-5	1.5%
Cc1ccc(NC(=S)N2CCN(S(C)(=O)=O)CC2)cc1	1.0	-5.7	0	-2	10	-0.4%
Cc1ccc(CCNC(=O)C2CCN(Cc3nc(-c4ccccc4C)oc3C)CC2)cc1	1.6	nt	nt	nt	-12	-0.1%
COc1cc(CNS(=O)(=O)c2ccc3c(c2)CC(C)N3C(C)=O)cc(OC)c1OC (stereo not drawn)	-0.7	-2.3	7	13	-28	-0.6%
Cc1ccc2nc(-c3ccc(C)c(NC(=O)CSc4ccc(Cl)cc4)c3)oc2c1	-0.9	nt	nt	nt	21	-0.7%
O=C(c1ccc(S(=O)(=O)NCc2ccco2)cc1)N1CCN(c2ccccc2)CC1	1.5	0.4	-8	-19	-4	-0.4%
CCc1ccccc1N1CC(c2nc3ccccc3n2CCC2CCCCC2)CC1=O (stereo not drawn)	1.2	nt	nt	nt	83	-1.2%
CCc1ccccc1NC(=O)Cn1cc(S(=O)(=O)N2CCCC2)c(S(=O)(=O)N2CCCC2)c1	-0.7	nt	nt	nt	6	1.6%
Cc1ccc(Cl)cc1NC(=S)N(CCCN1CCOCC1)Cc1ccco1	-0.6	-3.4	-5	2	-4	0.6%
Cc1cccc2c1-c1sc(C(=O)N3CCCCC3)cc1CO2	0.6	-0.1	14	19	27	2.2%
COC(=O)CNC(=O)c1ccc(F)cc1	0.5	3.9	3	7	?	-0.3%
COc1ccc(C(=O)CSc2nnc(COc3ccc(C#N)cc3)n2-c2ccccc2)cc1	1.7	0.1	-1	8	16	10%
CC1(C)CC(=O)C2=C(C1)c1c(ccc3ccccc13)NC2c1ccc(OCC(=O)O)cc1 (stereo not drawn)	3.3	8.4	3	nt	64	-1.9%
Cn1ccc2c(-c3ccc4c(c3)OCCO4)cc3c(c21)C1CCC3O1 (stereo not drawn)	2.3	-2.6	-29	-19	59	0.5%
Nc1nc2n(n1)C(c1cccc(Cl)c1)CC(c1ccc(F)cc1)N2 (stereo not drawn)	2.5	2.7	2	4	-5	0.2%
COc1ccc(NC(=O)C2CCCN(C(=O)Nc3ccc(F)cc3)C2)cc1OC (stereo not drawn)	0.7	-2.5	-8	-6	-5	-1.4%
CCOc1ccc(CNC(=O)C2CCN(S(=O)(=O)c3cn(C)cn3)CC2)cc1	0.5	nt	nt	nt	2	1.2%
O=C1NC[C@H](CCCCN2C[C@H](Cc3ccc(O)cc3)N(CC3CCCCC3)C(=O)C2=O)N(CCc2ccc(O)cc2)C1=O	-0.1	nt	-1	3	nt	1.1%
CSc1cccc(NC(=O)CCNS(=O)(=O)c2ccc3[nH]c(=O)oc3c2)c1	0.1	-6.9	-3	-7	14	-0.1%
C/C(=N\NC(=O)c1c(C)nc2ccccn12)c1ccc(N2CCOCC2)cc1	0.0	6.9	12	-12	-1	1.0%
CCc1cccc(NC(=S)N(CCCOC(C)C)C2CCN(C(C)=O)CC2)c1	0.0	2.1	4	4	-1	-2.2%
Cc1ccc(-c2cc(C(F)F)n3ncc(C(=O)N4CCc5ccccc5C4)c3n2)cc1	3.4	-4.5	10	nt	12	-1.8%
COC(=O)/C=C1\SC(N)=NC1=O	1.0	-1.1	1	nt	19	-1.0%
OCCc1ccc(NCCc2ccco2)cc1	-0.4	-1.3	0	5	nt	1.7%
CCc1nnc(NC(=O)CN2CCN(C(=O)c3ccccc3)CC2)s1	0.1	-3.7	-2	-12	-5	2.0%
O=[N+]([O-])c1ccc(-c2nc(=S)c3c(o2)CCCC3)cc1	-0.3	-0.8	-11	-10	-10	1.9%
Cn1cc(-c2cc3n(n2)CCC(=O)N3CCCC(=O)NCc2ccc(F)cc2)c2ccccc21	1.8	nt	nt	nt	9	11%
Cc1ccc(C(=O)NC(=S)Nc2cccc(NC(=O)c3ccccc3)c2)cc1[N+](=O)[O-]	0.8	-9.4	-21	-10	-2	-0.2%
CCCCN(C(=O)c1ccc(N(C)S(=O)(=O)c2ccc(C)cc2)cc1)c1c(N)n(CCC)c(=O)[nH]c1=O	-0.3	-5.5	6	6	4	0.1%
C=CCN(c1ccccc1C(=O)NCC(=O)O)S(=O)(=O)c1ccccc1C	-0.4	-5.3	2	-2	-5	0.8%
COC(=O)CSc1cc([N+](=O)[O-])cc2c1c(C1OCCO1)nn2-c1ccccc1	0.1	-1.8	1	8	-12	5.2%
COc1c(C)cc(Br)cc1C(=O)O	-0.6	-1.2	9	13	2	2.8%[38.3 µM]
CSc1nc(-c2ccc(Cl)cc2)nn1S(=O)(=O)c1ccccc1	0.7	-2.4	0	6	49	-0.2%
CC1SC(C)C(=O)N(CC(=O)NC2CCCCC2)C1=O (stereo not drawn)	0.2	0.3	-1	2	9	2.1%
C=CCSc1ccc(S(=O)(=O)N2CCN(C)CC2)cn1	0.2	-1.6	-6	-5	12	1.4%
CCOc1ccc(NC(=O)c2cc(F)c(F)cc2Cl)cc1OCC	-1.2	-3.7	-6	-97*	0	0.4%
CCOC(=O)c1cnc(SC2CC(=O)N(c3ccc(OC)c(OC)c3)C2=O)nc1N (stereo not drawn)	-0.2	-3.3	4	-2	0	7.8%[38.3 µM]
COC(=O)C1=C/C=C\CN(C(c2ccccc2)c2ccccc2)/C=C\1C(=O)OC	2.1	-3.3	-19	1	0	0.4%
Cc1ccc(N2C(=O)c3ccccc3C2=O)cc1	1.7	0.4	6	6	-7	9.2%

Taken from above.
PINK1 modulator with CCc1ccccc1NC(=O)Cn1cc(S(=O)(=O)N2CCCC2)c(S(=O)(=O)N2CCCC2)c1 → 1.6%
Six1-Eya2 inh with OCCc1ccc(NCCc2ccco2)cc1 → 0

Remaining list, next part.
SMILES	TRPML1 agonist	D2 agonist	Six1-Eya2 inh	CtBP-E1A inh	TRPML1 inh	PINK1 modulator
O=C(NCc1ccccn1)c1ccc(Br)s1	-0.1	-2.7	-11	-21	-8	0.9%[38.3 µM]
CCOC(=O)N1CCC(NC(=O)CCN2C(=O)C3C4C=CC(C4)C3C2=O)CC1 (stereo not drawn)	-0.3	-3.7	-2	1	-2	-1.2%
O=C(Cn1nnc2ccccc2c1=O)NC1CCCc2ccccc21 (stereo not drawn)	0.5	-3.1	-10	0	-24	28%[38.3 µM]
O=C(Nc1ccccc1C(F)(F)F)NC1CCCCCCC1	1.5	5.2	4	6	-7	30%[38.3 µM]
Cc1nnc2c(NC(C)C)nc3ccccc3n12	-0.7	-0.7	-14	-7	-2	11%
Cc1ccc2c(c1)CCO[C@@]21O[C@H](CCO)C[C@H](O)[C@H]1O	0.0	-1.9	-2	1	22	1.3%
Cc1cc(C)n(CC(=O)n2c(C)c(C)c3ccccc32)n1	-0.4	-5.8	-7	0	-20	1.1%
Cc1c(NC(=S)NC(=O)c2ccccc2Cl)c(=O)n(-c2ccccc2)n1C	-0.6	-7.9	5	2	19	0.1%
COc1cc(-c2nnc(COC(=O)c3cc(C)nc4ccc(C)cc34)o2)cc(OC)c1OC	1.1	-2.2	?	?	11	23%
O=C(CCC1CCN(C(=O)CC2=CCCCC2)CC1)NCc1ccc(F)cc1	-0.7	1.1	-4	2	-8	4.2%
O=C1C=C(O)CC(c2ccc(Cl)c(Cl)c2)C1 (stereo not drawn)	-0.7	-1.8	5	-1	-6	-0.6%
CCCc1cc(=O)[nH]c(SCC(=O)Nc2ccc(OC(F)F)cc2)n1	0.0	0.2	1	0	25	-1.6%
CC1(C(=O)Nc2ccc3c(c2)OCO3)CCN1C(=O)Cc1cc(F)ccc1F (stereo not drawn)	-0.8	-5.4	0	3	nt	1.1%
Cc1nn2c(=O)cc(COC(=O)c3ccc(NC(=O)COc4ccc(Cl)cc4)cc3)nc2s1	1.9	nt	nt	nt	-9	-0.7%
Cc1ccc(-c2ccnc(=S)[nH]2)cc1	0.6	0.7	-6	-10	10	-6.1%[38.3 µM]
CC(C)(C)C(=O)OCc1cn(-c2ccccc2)nn1	0.5	-1.0	4	6	-8	-1.8%
O=C(CSc1nnc(Cc2ccccc2)o1)N1CCCc2ccccc21	0.3	-1.8	4	6	-2	-1.2%[38.3 µM]
COc1ccc(NC(=O)n2ncc3c(C)cccc32)cc1	1.4	-6.6	-3	8	7	0.9%
O=C(Cn1c(=O)n2ncnc2c2c3c(sc21)CCCC3)c1ccccc1	2.3	-3.9	-3	1	9	-3.4%[38.3 µM]
CCC1(CC)NC(=O)N(CC(=O)N2N=C(c3ccc(Cl)cc3)CC2c2ccco2)C1=O (stereo not drawn)	1.6	-2.8	-13	-8	-8	-1.0%
O=C(C1CCN(S(=O)(=O)c2cccs2)CC1)N1CCN(c2ccccc2F)CC1	-0.4	nt	nt	nt	-8	1.6%
CCOC(=O)c1ccc(NC(=O)CN(Cc2ccc(C)cc2)S(=O)(=O)c2ccc(C)cc2)cc1	-0.1	nt	nt	nt	16	1.0%
O=C(Nc1ccncc1)c1cc2ccccc2o1	-0.6	-1.6	3	9	-18	1.4%
c1ccc(OCc2nn3c(Cn4nnc5ccccc54)nnc3s2)cc1	0.0	0.5	-1	-14	-5	-1.1%
C[C@H](CO)N1C[C@H](C)[C@@H](CN(C)S(=O)(=O)c2ccc(F)cc2)Oc2ccc(NC(=O)CCN3CCOCC3)cc2C1=O	-1.0	0.0	3	6	19	2.6%
C=CCOC1=CS(=O)(=O)N(Cc2ccc(Br)cc2)c2ccc(Br)cc21	-0.6	-3.4	1	4	2	-0.3%
[2H]C(CCOS(N)(=O)=O)c1ccc(C(C)(C)C)cc1 (stereo not drawn)	0.9	-2.4	1	7	4	7.2%
COc1ccc(C(=O)N2CCCCC2c2cc(C(=O)NCc3cccnc3)no2)cc1 (stereo not drawn)	-0.7	-1.1	6	5	nt	-0.5%
Cn1cnc2c(oc3ccccc32)c1=O	0.2	2.1	-3	-4	18	0.2%
CN(C)CCCC1(O)c2ccccc2CCc2ccccc21	-0.6	-2.4	2	1	-7	-1.1%

Limited to TRPML1 inh, for 4 of the compounds above:
Molecule	TRPML1 inh
O=C(Nc1ccncc1)c1cc2ccccc2o1	-18
c1ccc(OCc2nn3c(Cn4nnc5ccccc54)nnc3s2)cc1	-5
C[C@H](CO)N1C[C@H](C)[C@@H](CN(C)S(=O)(=O)c2ccc(F)cc2)Oc2ccc(NC(=O)CCN3CCOCC3)cc2C1=O	19
C=CCOC1=CS(=O)(=O)N(Cc2ccc(Br)cc2)c2ccc(Br)cc21	2

From PubChem
